# D2 ag = agonists of human D2 dopamine receptor (beta-arrestin); DiscoveRx PathHunter D2 beta-arrestin, luminescence, 90 min; 100% = 57 uM dopamine signal; activation, % (concentration not given with the values); P14416; hit rate 0.084% among 360,000; AID 624465; in the data active = activation above about 40%; inconclusive = about 15% to 40%; inactive = below about 15%; further: compound concentration not given in the record; the text of the record calls up to 30% inactive
#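 DiscoveRx PathHunter D2 beta-arrestin cells (2,100/well) attached overnight, then compound-stimulated 90 min at 37 C in HBSS/10 mM HEPES/0.1% Tween-20 buffer; beta-galactosidase complementation read by luminescence after 1 h at ambient temperature. Dopamine 57 uM final (EC100) as control.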
# TRPML1 inh = inhibitors of human TRPML1 channel; activity change, negative = inhibition, % (concentration not given with the values); Q9GZU1; TRPML1-inducible cells, Ca2+ dye fluorescence, FDSS; active compounds read low; inhibition of EC80 agonist-evoked calcium signal; hit rate 0.02% among 390,000; in the data active means activity change below about -50%; inconclusive means about -30% to -50%; inactive means above about -30%;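 further: stimulus is agonist 54-4 at its EC80 concentration; on the % scale 0 is the no-effect control and ±100 the full control effect; the text of the record puts the active cut at -80%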
#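 Tet-induced TRPML1-DL cells loaded with Ca8 no-wash calcium dye were read kinetically on FDSS. Compound addition was followed by EC80 agonist 54-4 (4 uM final); inhibition was read over 110 s.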
# PINK1 expr mod = changes PINK1 expression | AID 624263 | Potency, µM (highest dose often 76.6 µM), inactives show top-dose activation (PINK1 increase), usual class: activators | hit rate 0.2% among 410,000 | PINK1 immunofluorescence, high-content cytometry, 24 h; active = well fitted activation curve with a large enough effect; inconclusive = small, poorly fitted or top-dose-only effect; inactive = flat fitted curve, though single readings scatter; cell line not stated here;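 further: potency means the concentration at half of the fitted maximal effect; % of control where 0% means no effect; nearly all actives have a fitted effect of over 65% in size; a mitochondrial uncoupler was the plate control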
#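 A stable cell line was treated with compounds at 5 concentrations for 24 hours, with CCCP as control. PINK1 levels and mitochondrial localization were measured by immunofluorescence with mitochondrial, cell and nuclear markers after fixation, read by laser-scanning cytometry.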
# TRPML1 agonist = agonists of human TRPML1 channel | hit rate 0.12% among 410,000 | activation, % (no concentration beside the values) | Q9GZU1 | TRPML1-expressing cells, Ca2+ dye fluorescence, FDSS; host cell line not named in the record; reference of the full effect not given here; in the data active = activation above about 50%; inconclusive = about 30% to 50%; inactive = below about 30%; further: 0% is about no effect; the text of the record puts the active cut at 80%
#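 In this qHTS format, compounds were pin-transferred onto Ca8-dye-loaded TRPML1-DL cells induced with Tet overnight, and intracellular Ca2+ fluorescence was recorded kinetically for 110 s after a 10 s baseline. A subsequent 4uM final 54-4 (EC80) addition followed by a second 110 s read served as the antagonist phase.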
# Six1-Eya2 inh = blocks human Six1 binding to Eya2; Q15475+O00167; hit rate 0.56% among 360,000; AlphaScreen GST-Six1/His-Eya2 binding, biochemical; active compounds read low; control for the full effect not named in the record; activity change, % (concentration not given with the values); AID 651725; in the data active = activity change below about -65%; inconclusive = about -30% to -65%; inactive = above about -30%; further: on the % scale 0 is the no-effect control and ±100 the full control effect
# Target sequence (O00167 whole entry, looked up): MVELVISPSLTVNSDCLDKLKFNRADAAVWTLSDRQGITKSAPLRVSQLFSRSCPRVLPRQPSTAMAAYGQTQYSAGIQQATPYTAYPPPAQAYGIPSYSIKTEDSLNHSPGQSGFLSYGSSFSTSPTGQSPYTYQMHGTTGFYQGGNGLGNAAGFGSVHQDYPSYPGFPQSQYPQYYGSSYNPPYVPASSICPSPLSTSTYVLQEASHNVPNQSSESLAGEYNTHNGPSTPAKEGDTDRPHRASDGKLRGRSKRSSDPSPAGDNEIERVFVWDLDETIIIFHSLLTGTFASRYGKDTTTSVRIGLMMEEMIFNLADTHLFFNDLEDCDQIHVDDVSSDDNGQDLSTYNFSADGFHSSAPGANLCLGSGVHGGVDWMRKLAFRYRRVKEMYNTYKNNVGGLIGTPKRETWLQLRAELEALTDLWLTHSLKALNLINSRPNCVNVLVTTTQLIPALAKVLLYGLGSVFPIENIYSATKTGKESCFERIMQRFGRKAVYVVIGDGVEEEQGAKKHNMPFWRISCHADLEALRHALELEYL
# Target sequence (Q15475 whole entry, looked up): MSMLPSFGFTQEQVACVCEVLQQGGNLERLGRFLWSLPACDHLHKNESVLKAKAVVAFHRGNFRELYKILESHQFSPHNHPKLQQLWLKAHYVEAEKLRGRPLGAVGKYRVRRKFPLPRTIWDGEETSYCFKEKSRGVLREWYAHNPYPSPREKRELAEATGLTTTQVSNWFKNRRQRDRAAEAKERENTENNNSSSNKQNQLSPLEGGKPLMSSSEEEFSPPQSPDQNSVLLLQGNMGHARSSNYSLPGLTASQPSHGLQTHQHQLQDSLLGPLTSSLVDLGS
#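 Compounds are tested against tagged Six1 and Eya2 proteins bridged by glutathione donor and nickel acceptor beads; after a one-hour incubation at 37 °C without light, AlphaScreen emission is recorded.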
# CtBP-E1A blk = CtBP/E1A binding inhibition; hit rate 0.49% among 340,000; activity change, % (no concentration beside the values); AID 651724; AlphaScreen GST-E1A/His-CtBP binding, 1536-well; active compounds read low; control for the full effect not named in the record; in the data active means activity change below about -65%; inconclusive means about -30% to -65%; inactive means above about -30%; further: on the % scale 0 is the no-effect control and ±100 the full control effect
#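 Steps: dispense buffer (Tris pH 8.0, NaCl 300 mM, TCEP 1 mM, BSA, Tween 20); add 5X protein mix (GST-E1A, His-CtBP, 125 nM each); pin 23 nL compound; 2 h at 37 °C, dark; add 5X beads (50 ug/mL); 1 h; read.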
# Numbers without * were called inactive; u = inconclusive; x = not tested or not shown; & = joins results of further samples; [ ] = another dose, or the depositor's remark. Outcome played no part in choosing rows; any-hit rate near 1%.
SMILES,Six1-Eya2 inh,CtBP-E1A blk,D2 ag,PINK1 expr mod,TRPML1 agonist,TRPML1 inh
N#Cc1nc(-c2ccco2)oc1NCCc1ccccc1,-16,-12,-1.4,1.6%,1.4,17
C[C@@H]1CN(S(=O)C(C)(C)C)[C@@H](CCO)/C1=C\c1ccccc1 (some centres not stated),3,2,0.3,1.3%,-1.0,4
CC(CNC(=O)Cn1ccc2cc(S(=O)(=O)N3CCCCC3)ccc21)c1ccccc1 (configuration not stated),x,x,x,0.4%,0.9,-1
ClCC1CSC(=NC23CC4CC(CC(C4)C2)C3)O1 (configuration not stated),6,-17,-5.0,1.8%,0.2,-12
c1ccc2sc(NN=C3CCCC3)nc2c1,4,x,1.7,2.1%,-0.5,13
CCOc1ccccc1CNC(=O)c1cc2c(=O)n(Cc3ccco3)ccc2nc1C,x,x,x,2.4%,-0.2,6
COc1cc(-c2nc3nc[nH]n3c2Nc2ccc(C(C)C)cc2)ccc1O,x,x,x,0.5%,0.6,-3
Cc1ccc2c(c1)CCCN2C(=O)Nc1ccc2c(c1)OCO2,-12,-12,-1.1,-0.8%,-0.9,12
CCOc1ccc(NC(=O)CN2CCN(CC(=O)c3ccc(OC)c(OC)c3)CC2)cc1,-10,-3,0.5,-0.7%,0.3,1
O=C(CSc1nc(C2CC2)nc2ccccc12)N1CCCCC1,-2,-7,-0.4,-1.8%,3.2,-2
Cc1cc(NC(=O)c2ccccc2F)cc(C)c1OCC(=O)N1CCOCC1,9,-1,-0.4,1.3%,0.0,1
O=C(NNC(=O)C1CCN(S(=O)(=O)c2cccc(C(F)(F)F)c2)CC1)C1CC1,3,6,0.5,1.6%,-0.5,-21
Cc1ccc(C(=O)NCC(=O)N/N=C/c2cccs2)cc1[N+](=O)[O-],0,0,-1.0,0.0%,0.2,11
Cc1cc(NC(=O)C2=C(O)c3ccccc3S(=O)(=O)N2C)no1,-4,1,3.2,-0.2%,-0.5,5
CC(=O)c1ccc(N2CCN(CC(=O)Nc3ccccc3C(=O)NC3CC3)CC2)c(F)c1,-2,-1,-1.6,0.1%,0.5,-9
O=C(NNC(=O)c1ccccc1Br)c1cnccn1,-16,x,-0.7,0.4%,-0.7,0
O=C(O)c1cccc2c1C(=O)N(Cc1ccccc1)C2,0,-3,2.4,-0.6%,0.3,-1
CC(C)(C)n1nnnc1C(c1cccs1)N1CCN(Cc2ccc3c(c2)OCO3)CC1 (configuration not stated),-5,0,1.1,-1.3%,0.7,29
CCOC(=O)CSc1nnc(CNC(=O)c2cccs2)n1Cc1ccccc1,8,4,-2.4,1.5%,-0.4,-2
COc1ccc(OC)c(NC(=O)[C@H](CSCc2ccccc2)N2Cc3ccccc3C2=O)c1,x,x,x,-0.7%,0.3,-12
CCCCNC(=O)O[C@@H]1C[C@@H]2CCN3C(=O)CCC[C@H]([C@H]1CC)[C@H]23,-6,3,0.7,-0.4%,-0.5&-0.8,-15
CCOC(=O)/C(=C\C=C\N1CCOCC1)C(C)=O,-1,16,0.9,1.0%,2.7,1
COc1ccccc1OCC(=O)Nc1ccc2c(c1)C(=O)N(CC1CCCO1)C2=O (configuration not stated),-14,-8,-1.0,1.5%,-0.2,-9
COc1cc(/C=N/c2oc(C)c(C)c2C#N)cc(Br)c1O,-6,x,u,-0.3%,-0.3,-5
CCn1c(CSc2nc3ccccc3s2)nnc1SCC(=O)c1ccc(O)c(O)c1,-24,-11,3.5,-3.8%[38.3 µM],4.3,5
CS(=O)(=O)c1ccccc1C(=O)N1CCN(S(=O)(=O)c2ccc(C3CCCCC3)cc2)CC1,-4,-1,2.1,2.1%,0.3,-4
Cc1sc2ncn(CCn3cnc4sc(C)c(C)c4c3=O)c(=O)c2c1C,-17,1,0.3,-0.7%,0.6,33
Cc1nc(-c2ccc(S(=O)(=O)N3CCCCCC3)cc2)cs1,-2,2,0.2,-0.9%,-1.6,3
COc1ccccc1CNC(=O)C1CCN(Cc2nc(-c3ccc(OC)c(OC)c3)oc2C)CC1,x,x,x,1.3%,1.0,-20
CN(CCc1ccccc1)C(=O)c1ccc(NC(=O)Cc2ccc([N+](=O)[O-])cc2)cc1,-9,-2,1.4,-0.1%,1.8,-8

# 3 entries out of the list above, sorted by their value in CtBP-E1A blk, descending.
Compound	Six1-Eya2 inh	CtBP-E1A blk	D2 ag	PINK1 expr mod	TRPML1 inh
Cc1nc(-c2ccc(S(=O)(=O)N3CCCCCC3)cc2)cs1	-2	2	0.2	-0.9%	3
Cc1sc2ncn(CCn3cnc4sc(C)c(C)c4c3=O)c(=O)c2c1C	-17	1	0.3	-0.7%	33
CC(=O)c1ccc(N2CCN(CC(=O)Nc3ccccc3C(=O)NC3CC3)CC2)c(F)c1	-2	-1	-1.6	0.1%	-9

# (listing goes on)
SMILES,Six1-Eya2 inh,CtBP-E1A blk,D2 ag,PINK1 expr mod,TRPML1 agonist,TRPML1 inh
Cc1ccc(CSCc2nc3ccccc3[nH]2)cc1,-7,0,0.2,-2.2%,0.5,18
CCCn1nc(C(=O)NCC2COc3ccccc3O2)c2ccccc2c1=O (configuration not stated),6,6,14,1.4%,6.4,-16
CCCCc1ccc(NC(=O)CSC2=NN3CCCC(=O)N=C3S2)cc1,5,6,-4.0,0.4%,1.5,-8
Fc1ccc(-c2noc3ncnc(NCc4ccc(Cl)cc4)c23)cc1,x,x,x,0.2%,4.7,63
C=CCn1c(C)cc(-c2csc(NC(=O)C3CCN(c4ncnc5sc(C)c(C)c45)CC3)n2)c1C,-2,-19,4.6,-1.3%,-0.2,-14
CS(=O)(=O)N1CC(C(=O)NC2CCCC2)Oc2ccc(Cl)cc21 (configuration not stated),-1,18,-1.1,-3.8%,-0.1,1
O=C(Cn1ncc2c(=O)oc3ccccc3c21)NCc1cccnc1,-4,0,0.0,1.1%,0.4,29
COc1ccc(N2CCN(C(=O)CNC(=O)c3cccs3)CC2)cc1,-5,-6,-3.9,1.8%,-0.1,0
Cc1ccc(NC(=O)CSc2nc3nc(C)cc(C)c3c(=O)[nH]2)cc1,-8,-12,1.3,0.4%,0.0,1
Cn1c2ccccc2c(=O)c2c(=O)n(Cc3ccco3)c(-c3ccc(F)cc3)nc21,-23,-11,-3.9,5.1%,1.3,27
CCCCC(=O)Nc1ccc(NC(=S)NC(=O)c2cccs2)cc1OC,-21,0,-4.4,2.2%,-0.7,-1
COc1ccc(-c2cc3c(c4c2ccn4C)C2CCC3C2)cc1OC (configuration not stated),u,-28,-4.3,u,-0.2,21
Cc1cc(Br)ccc1NC(=O)c1ccc(NS(=O)(=O)c2c(C)noc2C)cc1,x,x,x,0.2%,-0.8,9
CCOC(=O)c1sc(=S)n(-c2ccc(OC)cc2)c1C,-5,3,4.4,1.0%,2.2,23
C[C@@H]1CCCCO[C@H](CN(C)C(=O)c2ccncc2)[C@H](C)CN([C@@H](C)CO)C(=O)c2cc(NC(=O)c3ccccc3)ccc2O1,-5,-2,-2.5,1.1%,0.6,-3
NC(=O)c1cc(C(=O)Cc2ccc(Cl)cc2)c[nH]1,1,-14,-0.9,-0.9%,-1.3,2
C/C(CC(=O)NCc1ccccc1)=N\NC(=O)c1cnccn1,8,15,-2.0,0.7%,-0.9,-3
Cc1cc(NC(=O)CSc2nc(N)c(NC(=O)c3ccccc3)c(=O)[nH]2)no1,1,1,-6.4,4.2%,-0.4,-6
CC(=O)Nc1ccc(NCc2ccc(-c3ccccc3)cc2)cc1,-6,-7,-0.7,0.8%,-0.2,-2
CC(=O)Nc1ccc(-c2ccnc3c2CC(C(=O)Nc2cccc(C(F)(F)F)c2)O3)cc1 (configuration not stated),0,-13,14,0.5%,-0.4,x
O=C(Nc1cccnc1)c1sc(Nc2ccccc2)nc1-c1ccccc1,10,8,-2.3,u,1.5,-15
CC1Cc2ccccc2N1CC(=O)NC(=O)NC(C)(C)C (configuration not stated),3,3,4.6,1.8%,-0.7,-9
COc1cccc(NC(=O)CSCc2cc(=O)n3ccsc3n2)c1,2,-13,-6.8,-1.4%,0.2,0
COc1ccc(C2/C(=C(/O)c3ccc(Br)cc3)C(=O)C(=O)N2C)cc1OC (configuration not stated),-13,x,-3.9,-0.9%,-0.7,0
Cc1ccc2nc(N/N=C\c3ccc([N+](=O)[O-])o3)nc(-c3ccccc3)c2c1,-16,0,-1.8,3.5%,0.7,42
CCN(CC)CC(=O)Nc1sc2c(c1C(=O)c1ccccc1OC)CCC2,u,-22,1.7,5.0%,2.6,31
O=C(Nn1cnnc1)c1cc2c(s1)CCCCC2,1,0,-0.1,u,0.2,3
O=P(O)(c1ccccc1)c1ccccc1O,4,7,-2.1,-1.0%,0.8,3
CCOc1ccc(CC(=O)NCCc2csc(-c3ccc(Cl)cc3)n2)cc1,x,x,x,1.2%,3.8,13
Cc1ccc(-c2c(C)sc3nc[nH]c(=O)c23)cc1C,4,2,-2.0,1.7%,0.4,8

# (next part)
SMILES,Six1-Eya2 inh,CtBP-E1A blk,D2 ag,PINK1 expr mod,TRPML1 agonist,TRPML1 inh
COc1c(Br)cc(Br)cc1/C=N/n1c(C)nnc1C,1,0,-2.2,2.3%,1.7,12
CC1CCC(NC(=O)CN(C)CC(=O)Nc2ccc(F)cc2)CC1 (configuration not stated),-1,4,-0.8,2.8%,1.5,7
COc1ccccc1CN=c1c([N+](=O)[O-])nn(-c2ccc3c(c2)OCCO3)n1O,u,-24,u,-0.2%,0.0,14
CCN(CC)C(=O)[C@H]1CC(CC(=O)NCCCn2ccnc2)C(=O)N2CCc3c([nH]c4ccccc34)[C@]12C (some centres not stated),-7,1,0.6,-0.4%,-0.6,-3
COc1cc(OC)c(NC(=O)c2cc3c(=O)oc4ccc(C)cc4c3s2)cc1Cl,x,x,x,3.1%,1.4,15
CC(=O)c1cccc(S(=O)(=O)N2CCn3cccc3C2C)c1 (configuration not stated),-10,x,-2.6,2.6%,-0.7,-18
COc1ccc(NCc2cc3ccccc3[nH]c2=O)cc1,-1,-3,5.5,-0.5%,-0.3,-11
COc1ccc(C(=O)N(C)C(C)c2ccon2)cc1OC1CCN(C(C)C)CC1 (configuration not stated),3,4,-4.4,4.2%,0.1,14
CSc1nncc(/C(C)=N\Nc2ccccc2)n1,-2,-3,3.0,u,1.8,-15
O=C(O)c1ccc2oc(=O)c(S(=O)(=O)c3ccc(F)cc3)cc2c1,4,3,3.8,-0.8%,0.7,33
COc1ccccc1CNC(=O)C1CCCN1S(=O)(=O)c1cccc2cccnc12 (configuration not stated),-5,-2,-5.8,-0.1%,-0.5,1
CC(C)CNC(=O)C1CCN(S(=O)(=O)c2ccc(-n3cnnn3)cc2)CC1,9,2,-1.0,-0.5%,-0.2,1
Cc1cc(C)c(S(=O)(=O)N2CCN(C(=O)CN3C(=O)NC4(CCCC4)C3=O)CC2)c(C)c1,7,-1,-2.3,4.9%,0.1,-8
O=C(NCCCNC(=O)c1cc(Cl)ccc1Cl)c1ccccn1,3,2,-3.6,0.5%,-1.0,-7

# High-throughput results: PubChem, National Center for Advancing Translational Sciences (NCATS)
